BCLXL inh – inhibitors of human Bcl-xL, primary screen, biochemical, fluorescence polarization, HTS | Bcl-2-like protein 1 (Homo sapiens), Q07817 | GST-Bcl-xL / FITC-Bim BH3 peptide fluorescence polarization | inhibition, % at 10.9 µM | hit rate 0.7% among 320,000;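 active = inhibition above the mean of all tested compounds plus 3 SD, cutoff set per campaign, cut at about 30% in these data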;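 also: 0% = DMSO wells and 100% = unlabeled Bim-BH3 peptide competitor; inhibitors lower millipolarization by displacing the labeled peptide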
MEX-5 binding – MEX-5 zinc finger RNA-binding disruptors – biochemical, C. elegans, fluorescence polarization, MLPCN library, primary screen | Zinc finger protein mex-5 (Caenorhabditis elegans), Q9XUB2 | MEX-5/FITC-TCR2 RNA binding; active compounds read low | activity score (negative = inhibition of binding), % at 10 µM | hit rate 0.38% among 300,000 | AID 1832, 2009;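 active = inhibition past about -25% in most replicates, and total fluorescence under double the plate's negative control median, limit read from the data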;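 also: 0% = DMSO and -100% = 5 µM competing unlabeled TCR2 RNA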
GSTO1 counter – inhibitors of recombinant GSTO1, primary screen, counter-screen for RBBP9 inhibitor project, biochemical, fluorescence polarization. activity-based probe fluorescence polarization. inhibition, % at 5.96 µM. hit rate 1.1% among 300,000. AID 1974, 2009;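 active = inhibition above the campaign mean inhibition plus 3 SD, cut at about 35% in these data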;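 also: 0% = GSTO1-1 with DMSO and 100% = wells lacking GSTO1-1 enzyme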
Fam108B counter – mouse Fam108B serine hydrolase inhibitors, primary screen, counter-screen for RBBP9 inhibitor project, biochemical, fluorescence polarization; hit rate 0.33% among 300,000; recombinant Fam108B, FP-Rh probe fluorescence polarization; inhibition, % at 9.51 µM;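 active = inhibition above the screen mean inhibition plus 3 SD, computed separately per campaign, cut at about 18% in these data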;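 also: inhibitors lower polarization as less probe binds the enzyme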
MCL1 BIM primary – inhibitors of MCL1 binding to BIM-BH3, primary screen, biochemical, fluorescence polarization | GST-MCL1 / FITC-Bim-BH3 fluorescence polarization | inhibition, % at 10.9 µM | hit rate 0.68% among 320,000 | AID 2057, 2009;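 active = inhibition above the mean inhibition of all tested compounds plus 3 SD, set per campaign, cut at about 40% in these data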;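 also: 0% = DMSO wells and 100% = unlabeled Bim-BH3 peptide control; higher means more loss of mP so more displacement of Bim peptide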
Target sequence (Q07820 whole entry, looked up): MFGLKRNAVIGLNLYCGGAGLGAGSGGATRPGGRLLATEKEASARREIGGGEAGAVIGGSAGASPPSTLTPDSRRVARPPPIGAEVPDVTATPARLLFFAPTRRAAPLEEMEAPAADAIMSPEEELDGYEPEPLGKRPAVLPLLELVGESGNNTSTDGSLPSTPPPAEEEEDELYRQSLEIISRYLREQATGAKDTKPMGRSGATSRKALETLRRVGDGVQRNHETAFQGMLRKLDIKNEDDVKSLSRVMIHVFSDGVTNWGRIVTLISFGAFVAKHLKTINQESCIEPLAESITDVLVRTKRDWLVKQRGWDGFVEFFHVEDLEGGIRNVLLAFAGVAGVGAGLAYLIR
TPT1 inh – Candida albicans TPT1 enzyme inhibitors, primary screen, biochemical, fluorescence polarization | recombinant caTPT1, FP RNA substrate dephosphorylation | inhibition, % at 5 µM | tRNA 2'-phosphotransferase TPT1 (Candida albicans SC5314) | AID 1962, 2009 | hit rate 0.81% among 300,000;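 active = inhibition above the mean of all tested compounds plus 3 SD, set per screening campaign, cut at about 24% in these data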;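 also: plate controls were DMSO alone for no effect and ferristatin control at 100 nM for full effect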
GLD-1 RNA inh – GLD-1/TGE RNA complex disruptors, primary screen, biochemical, fluorescence polarization | Female germline-specific tumor suppressor gld-1 (Caenorhabditis elegans), Q17339 | purified GLD-1 + fluorescein TGE RNA | inhibition, % at 5.96 µM | hit rate 0.44% among 320,000 | AID 2280, 2010;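 active = percent inhibition above a per-plate cutoff, the plate mean of test compounds plus 3 SD, cut at about 30% in these data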;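 also: 0% = DMSO wells with GLD-1 and probe and 100% = wells lacking GLD-1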
PAD4 FP inh – human PAD4 inhibitors, primary screen, biochemical, fluorescence polarization, 1536-well format; Protein-arginine deiminase type-4 (Homo sapiens), Q9UM07; recombinant PAD4, RCA probe fluorescence polarization; inhibition, % at 6.36 µM; hit rate 0.41% among 330,000;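 active = percent inhibition above a cutoff equal to the mean of all tested compounds plus 3 SD, cut at about 15% in these data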;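 also: 0% = PAD4 with RCA probe and DMSO and 100% = probe without PAD4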
Target sequence (Q9UM07 whole entry, looked up): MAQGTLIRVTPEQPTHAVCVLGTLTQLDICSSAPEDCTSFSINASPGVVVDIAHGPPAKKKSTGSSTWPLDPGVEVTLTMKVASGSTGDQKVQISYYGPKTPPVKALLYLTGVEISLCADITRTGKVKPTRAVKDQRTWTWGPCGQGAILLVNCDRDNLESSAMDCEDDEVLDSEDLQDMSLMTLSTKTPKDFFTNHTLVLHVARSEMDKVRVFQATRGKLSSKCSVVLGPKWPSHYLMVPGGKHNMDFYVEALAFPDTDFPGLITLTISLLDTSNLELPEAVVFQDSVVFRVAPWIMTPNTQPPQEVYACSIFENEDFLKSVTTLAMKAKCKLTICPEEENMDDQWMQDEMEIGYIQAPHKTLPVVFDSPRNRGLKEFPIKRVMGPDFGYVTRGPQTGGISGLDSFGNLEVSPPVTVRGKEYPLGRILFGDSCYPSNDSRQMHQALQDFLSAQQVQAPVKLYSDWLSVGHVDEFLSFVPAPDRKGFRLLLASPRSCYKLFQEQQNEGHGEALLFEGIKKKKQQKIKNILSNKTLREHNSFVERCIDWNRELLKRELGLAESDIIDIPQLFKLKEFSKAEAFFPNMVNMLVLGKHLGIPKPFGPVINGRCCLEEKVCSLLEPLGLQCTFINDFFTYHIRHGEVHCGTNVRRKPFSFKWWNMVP
An asterisk follows results filed as active; / = no result given. The list is partial; rates above refer to the full screens.

structure	BCLXL inh	MEX-5 binding	GSTO1 counter	Fam108B counter	MCL1 BIM primary	TPT1 inh	GLD-1 RNA inh	PAD4 FP inh
O=C(c1cccc(S(=O)(=O)N2CCCCC2)c1)N1CCOCC1	-4.0	0.4	3.1	-8.4	2.7	2.0	-1.7	-16.4
COc1cc(NC(=O)COC(=O)Cc2ccsc2)cc(OC)c1	-0.3	/	/	/	-2.7	/	2.6	-3.9
O=C(Cn1cnc2sc3c(c2c1=O)CCCC3)NCC(=O)Nc1ccccc1F	-0.9	-0.3	-5.6	-7.8	-1.0	-1.2	-2.1	-6.5
O=[N+]([O-])c1c(NCCO)cc(N2CCCCCC2)c2nonc12	4.8	3.8	-1.9	-0.5	1.3	-0.1	8.1	2.8
CCn1cnnc1SCC(=O)NCC1COc2ccccc2O1 (stereo unspecified)	-2.7	/	/	/	-4.8	/	-3.3	-3.8
Cc1cc(C)cc(N(CCC#N)C(=O)COC(=O)C2CCN(S(=O)(=O)c3ccc(C)c(C)c3)CC2)c1	-3.2	0.9	0.7	-1.4	-21.0	-0.4	0.3	7.3
CCC1(c2cccc(Cl)c2)NC(=O)N(Cc2cc(C(=O)OC)c(C)o2)C1=O (stereo unspecified)	10.0	2.8	-3.7	3.5	8.6	-3.5	-9.5	-2.0
CCOc1ccccc1-c1nc(C(N)=O)c2[nH]c(=O)n(-c3cccc(C)c3)c2n1	3.4	4.1	-5.8	-2.3	0.1	0.5	7.4	-10.2
COC(=O)c1c(C(=O)OC)c2ccccn2c1C(=O)c1ccccc1	4.4	0.1	2.5	0.4	-7.6	-0.6	6.6	-2.2
COCCNC(=O)C1(S(=O)(=O)c2ccccc2)CC=CC1	4.0	2.5	-4.6	2.7	5.2	-1.8	-2.7	-0.1
O=C(OCCN1C(=O)c2ccccc2C1=O)c1cc(S(=O)(=O)N2CCOCC2)ccc1Cl	1.7	-0.4	-3.1	-1.0	3.1	0.1	5.7	0.2
O=C1CC(c2ccc(F)c(Br)c2)C2=C(CCCC2=O)N1 (stereo unspecified)	-0.2	1.7	9.5	-2.2	2.2	-3.7	1.6	-1.4
CCOC(=O)c1sc(Nc2nc3c(OC)cccc3s2)nc1C	-4.9	-1.5	-9.3	0.8	3.1	-4.8	6.6	-4.4
CCN(CC(=O)Nc1c(F)cccc1F)C(=O)C1CCN(S(=O)(=O)c2ccc(C)c(C)c2)CC1	6.9	0.0	1.4	3.2	1.8	-1.3	6.7	-3.2
CCOC(=O)c1cccc(NC(=O)Nc2ccc(OCC)cc2)c1	3.2	0.7	-0.5	5.5	-3.9	2.1	4.8	-4.2
COc1ccc(-c2cc3ccccc3oc2=O)cc1NC(=O)c1ccc([N+](=O)[O-])o1	8.0	-0.3	4.3	-1.1	1.1	0.5	6.3	-0.4
CC(=O)OC1c2c(ccc3ccc(=O)oc23)OC(C)(C)C1OC(=O)CC(C)C (stereo unspecified)	-10.9	/	-11.5	-6.3	-23.8	-1.8	-0.6	-1.3
CN(C(=O)C1CCC(CNS(=O)(=O)c2cccc3cccnc23)CC1)C1CCCCC1 (stereo unspecified)	3.3	0.4	1.6	-2.2	-1.4	-0.1	-4.1	2.4
COc1ccc(Cl)cc1NC(=O)CN(C)C(=O)c1ccc(-n2nc(C)cc2C)cc1	-7.1	/	/	/	-9.1	/	2.3	-1.1
Cn1c(CN2CCN(C(=O)c3ccccc3Cl)CC2)nc2cc([N+](=O)[O-])ccc21	3.9	-1.6	-0.6	-1.9	8.1	1.3	6.2	-2.5
Cc1ccc(S(=O)(=O)N2CCCCC2)cc1NC(=O)Cc1c[nH]c2ccccc12	-0.4	7.6	-1.3	0.1	-7.8	5.9	-5.3	-9.1
CCN(c1cccc(C)c1)S(=O)(=O)c1cn(CC(=O)OC)c2ccc([N+](=O)[O-])cc12	-1.3	0.8	-33.2	-10.5	-1.2	3.9	3.1	3.0
N#Cc1ccc(CN2CCN(C(=O)CCNS(=O)(=O)c3ccc(F)c(Cl)c3)CC2)cc1	3.9	/	/	/	6.4	/	2.4	1.9
CN(Cc1c(F)cccc1Cl)C(=O)c1cnc2ccccc2n1	0.6	-3.3	2.5	-5.2	-12.0	2.6	4.6	2.1
COc1ccc(NC(=S)N/N=C2\CC(C)(C)Oc3ccc(O)cc32)cc1	2.7	0.3	5.0	2.5	13.2	-1.9	-0.2	3.1
CCCCOC(=O)C(C#N)c1nc2ccccc2nc1N1CCOCC1 (stereo unspecified)	-1.4	-2.3	-1.3	6.4	-5.7	6.8	4.2	-2.9
O=c1c2c(nc3c(-c4ccccc4)c[nH]n13)CCC2	2.3	1.7	-0.2	2.1	4.9	2.2	-11.3	-6.6
COc1cccc(C(=O)N2CCN(Cc3cn[nH]c3-c3ccc(F)cc3F)CC2)c1	0.2	1.9	-1.3	-2.0	-1.1	3.0	-0.8	3.7
COc1ccc(NC(=O)N(CCO)Cc2cc3c(C)cc(C)cc3[nH]c2=O)cc1	3.5	1.0	-4.1	-2.3	2.4	3.9	-0.5	0.0
O=C(Nc1ccc(-c2nnc(-c3ccccc3)o2)cc1)c1ccc(Br)o1	7.9	-1.2	3.6	-3.4	4.8	-0.7	0.9	4.8
O=S(=O)(c1cccc(S(=O)(=O)N2CCC(n3nnc4ccccc43)CC2)c1)N1CCCCC1	1.0	1.6	-4.4	-1.3	4.7	5.4	-0.7	-3.0
Cc1oc(-c2ccc(Cl)cc2)cc1C(=O)/C(C#N)=C/Nc1cccc(OC(F)(F)F)c1	6.6	-1.5	10.0	-0.3	5.4	-0.7	-0.5	-7.8
Cn1nc(-c2ccccc2)cc1NC(=O)Nc1ccccc1F	5.0	-1.3	-11.3	-6.2	8.6	-1.4	-5.0	1.9
COc1ccccc1-n1c(SCC(=O)O)nc2c(sc(=S)n2-c2ccc(Cl)c(C)c2)c1=O	8.9	-1.4	-16.3	0.4	5.0	-0.1	-0.5	3.3
CNC(=O)C1CC(=O)N(CCc2ccc(C)cc2)C1 (stereo unspecified)	4.2	0.0	3.1	2.5	5.0	-4.0	-13.8	-1.8
Cc1cc(C)c(NC(=O)C2CCCCN2C)c(C)c1 (stereo unspecified)	8.3	0.6	16.0	11.8	4.3	-2.9	0.5	-2.0
COc1ccc(Cl)cc1-c1n[nH]c(=S)n1Cc1ccccc1	-13.5	2.7	3.4	-0.8	-17.0	0.6	8.3	-0.6
Cc1ccc2cc(C#N)c(NCCNC(=S)NCCCN3CCOCC3)nc2c1	8.4	0.8	6.4	-2.1	17.8	-4.2	0.2	-2.1
COc1ccccc1-c1cc(-c2ccc(O)cc2)nc(N)c1C#N	7.0	-2.4	-17.4	-2.0	13.0	0.1	-5.4	-0.9
Cc1ccc(-c2nc3c(c(=O)[nH]c(=O)n3CC(C)C)n2CC(C)C)cc1[N+](=O)[O-]	3.4	3.4	-11.3	6.0	2.4	-2.8	7.1	-5.1
COc1ccc(C2CC(=O)C3=C(C2)Nc2ccccc2N(C(C)=O)C3c2ccco2)cc1 (stereo unspecified)	0.7	-1.0	1.9	0.0	-0.3	-0.7	0.7	-4.7
O=C(COC(=O)c1ccccc1[N+](=O)[O-])Nc1cc(S(=O)(=O)N2CCOCC2)ccc1N1CCCC1	-0.6	0.2	13.2	1.2	-3.6	-0.1	0.3	1.8
COc1ccc(C(=O)COC(=O)c2nn(C)cc2Cl)cc1	4.2	0.2	2.6	-0.8	2.1	0.5	-1.9	-0.1
O=S(=O)(Nc1ccc(-c2ccc3nncn3n2)cc1)c1cccs1	1.8	0.1	-8.1	3.7	1.8	1.7	-0.9	-1.4
CC(C)NC(=O)C1CCN(S(=O)(=O)c2ccc(N3CCCC3=O)cc2)CC1	1.3	3.3	2.3	-0.3	0.3	-3.9	1.5	-5.8
Cc1ccccc1CN1CCNC(=O)C1CC(=O)NCCC1=CCCCC1 (stereo unspecified)	7.4	0.5	9.5	0.6	-2.3	1.4	-4.1	-1.5
CCc1n[nH]c(=S)n1/N=C/c1cc(Br)c(OC)cc1OC	-12.3	-1.3	-6.9	-2.3	-6.0	1.7	4.2	-1.7
COc1ccc(S(=O)(=O)N2CCCCC2)cc1NC(=O)c1cccs1	-0.1	1.2	-7.1	-3.3	-1.3	2.4	-4.2	-7.0
Cn1c(=O)c(=O)n(C)c2cc(S(=O)(=O)N3CCN(C4CCCCC4)CC3)ccc21	-2.5	0.4	0.5	2.6	-5.0	-1.4	1.3	0.3
Cc1ccc(C)c(NC(=O)COC(=O)CC2c3ccccc3CCN2S(=O)(=O)c2ccc(F)cc2)c1 (stereo unspecified)	5.8	-1.6	3.1	0.1	2.7	-2.4	0.6	0.1

3 structures out of the list, ordered by molar mass, ascending:
structure	BCLXL inh	MEX-5 binding	GSTO1 counter	Fam108B counter	MCL1 BIM primary	TPT1 inh	GLD-1 RNA inh	PAD4 FP inh
COc1ccc(C(=O)COC(=O)c2nn(C)cc2Cl)cc1	4.2	0.2	2.6	-0.8	2.1	0.5	-1.9	-0.1
CCCCOC(=O)C(C#N)c1nc2ccccc2nc1N1CCOCC1 (stereo unspecified)	-1.4	-2.3	-1.3	6.4	-5.7	6.8	4.2	-2.9
O=C(COC(=O)c1ccccc1[N+](=O)[O-])Nc1cc(S(=O)(=O)N2CCOCC2)ccc1N1CCCC1	-0.6	0.2	13.2	1.2	-3.6	-0.1	0.3	1.8

The list continues.
structure	BCLXL inh	MEX-5 binding	GSTO1 counter	Fam108B counter	MCL1 BIM primary	TPT1 inh	GLD-1 RNA inh	PAD4 FP inh
CCOc1ccccc1-n1cnc(C#N)c1N	4.6	1.1	-2.1	-1.1	-4.4	-4.5	-2.8	-0.6
Cc1ccc(S(=O)(=O)N2CCCCC2)cc1NC(=O)COC(=O)c1ccc(O)cc1	29.1	0.7	0.0	-3.7	-2.5	-1.9	3.3	-0.7
CCN(CC)c1ccc(C(=O)n2cnc3ccccc32)cc1	6.3	2.3	18.2	2.8	0.5	-1.4	1.3	1.3
CCOC1(NC(=O)c2ccccc2)C(C)=CC(=O)C=C1C	2.0	-0.8	0.3	0.3	8.1	5.5	2.8	0.4
C/C(=N\NC(=O)c1cccs1)c1c(O)cc(C)oc1=O	8.7	0.9	-4.8	2.8	9.7	-1.9	-3.7	-2.4
C/C(N)=C(/C#N)C(=O)COC(=O)c1cc(S(=O)(=O)N2CCCCC2)ccc1C	4.1	-2.0	3.8	-4.0	1.9	1.9	0.5	-4.9
COc1cc2c(cc1OC)C(C)N(CC(=O)Nc1ccc(C)c(S(=O)(=O)N3CCOCC3)c1)CC2 (stereo unspecified)	5.8	0.1	-0.7	6.0	5.2	-0.4	-1.1	-1.6
COc1cc(C(C)=O)ccc1OCC(=O)N1CCc2ccccc2C1	1.8	-1.3	3.1	2.3	-4.2	1.9	-1.3	-4.3
Cc1cc(C(C)(C)C)c(OC(=O)[C@@H]2OC(c3ccccc3)=C[C@H]2c2ccccc2)c(C(C)(C)C)c1	0.1	/	/	/	-2.9	/	0.6	-3.2
O=C(NC1CCCc2ccccc21)C1CCN(S(=O)(=O)c2cccc(C(F)(F)F)c2)CC1 (stereo unspecified)	5.6	1.2	2.8	-3.8	7.4	-2.1	2.2	0.9
CCCc1cc(=O)[nH]c(SCC(=O)NCC2COc3ccccc3O2)n1 (stereo unspecified)	4.9	/	/	/	3.2	/	0.2	-3.6

From PubChem BioAssay
